Cruzain Triton – inhibitors of Trypanosoma cruzi cruzain with detergent; P25779; AID 1478; Potency, µM, for the others: max response, negative = inhibition, hits mostly inhibitors; actives 0.43% (n = 200,000); purified cruzain, Z-FR-AMC fluorescence, 0.01% Triton;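 also: plate controls were neutral wells for no effect and buffer without enzyme for full effect; nearly all actives have a fitted effect of over 40% in size; top concentration of the series not given in the record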
Target sequence (P25779 123-467 limits assumed): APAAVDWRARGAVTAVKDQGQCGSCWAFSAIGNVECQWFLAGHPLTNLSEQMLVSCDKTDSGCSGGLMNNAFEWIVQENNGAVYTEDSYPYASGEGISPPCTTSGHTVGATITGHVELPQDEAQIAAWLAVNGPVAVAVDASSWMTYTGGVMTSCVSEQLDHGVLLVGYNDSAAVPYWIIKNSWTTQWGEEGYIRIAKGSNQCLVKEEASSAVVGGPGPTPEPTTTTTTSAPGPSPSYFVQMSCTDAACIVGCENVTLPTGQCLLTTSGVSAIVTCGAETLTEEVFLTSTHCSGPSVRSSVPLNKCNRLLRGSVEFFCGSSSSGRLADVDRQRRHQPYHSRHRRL
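Compounds were screened in titration against cruzain (1.5 nM) with 0.01% Triton X-100 to counter colloidal aggregation. Activity was the AMC fluorescence increase over 60 s after adding 2 uM Z-FR-AMC at pH 5.5.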
StopGo reporter – lowers the luciferase signal of an FMDV 2A StopGo reporter; actives 1.2% (n = 410,000); Potency, µM (doses to about 57.9 µM), for the others: at the highest dose signal change, negative = less light; AID 1159524; human cells with a luciferase reporter of 2A StopGo recoding; control for the full effect not named in the record; active = well fitted falling curve with a large enough effect; inconclusive = small, poorly fitted or top-dose-only effect; inactive = no such curve, though single readings can be large or run the other way; tested in HEK293T cells; also: % is scaled to controls: 0 for no effect and ±100 for the full control effect; nearly all actives have a fitted effect of over 45% in size; luciferase light after 4 h
RE007 growth inh – less growth of the S. pombe RE007 Vpr strain; S. pombe RE007 Vpr strain, BacTiter-Glo ATP luminescence, 24 h; control for the full effect not named in the record; Potency, µM (top dose mostly 92.2 µM), for the others: at the top dose activity change, negative = less growth; actives 0.21% (n = 360,000); AID 651644; active = well fitted falling curve with a large enough effect; inconclusive = small, poorly fitted or top-dose-only effect; inactive = no such curve, though single readings can be large or run the other way;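 also: % is scaled to controls: 0 for no effect and ±100 for the full control effect; nearly all actives have a fitted effect of over 50% in size; the assay follows cell death caused by Vpr and the record does not say whether a fall means rescue or toxicity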
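Fission yeast strain RE007, carrying one chromosomally integrated HIV-1 vpr copy, was seeded at OD 0.01 in PMG+AL medium with 23 nL pinned compound. After 24 h at 30 °C and 99% humidity, viability was read by BacTiter-Glo luminescence.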
LASV entry inh – blocks Lassa virus binding to or entry into cells; Potency, µM (top dose mostly 37.9 µM), for the others: at the top dose activity change, negative = inhibition, usual class: inhibitors; AID 540256; actives 1.2% (n = 300,000); Lassa virus pseudotype entry inhibition, cell reporter; control for the full effect not named in the record; active means well fitted inhibition curve with a large enough effect; inconclusive means small, poorly fitted or top-dose-only effect, or effect the other way; inactive means flat fitted curve, though single readings scatter; tested in HEK293 cells; also: % is scaled to controls: 0 for no effect and ±100 for the full control effect; nearly all actives have a fitted effect of over 50% in size; luciferase read-out
SARS PLpro yeast – blocks SARS-CoV papain-like protease in a yeast assay | S. cerevisiae expressing SARS-CoV PLpro, growth rescue; control for the full effect not named in the record | Potency, µM (doses to about 32.9 µM), for inactives: at the top dose activity, positive = growth rescue | actives 0.19% (n = 330,000) | AID 485353; active means well fitted rising curve with a large enough effect; inconclusive means small, poorly fitted or top-dose-only effect; inactive means no such curve, though single readings can be large or run the other way; also: 0% is about no effect; nearly all actives have a fitted effect of over 55% in size; growth read by luminescence after 48 h
MARV entry inh – Marburg virus entry inhibition. Marburg virus pseudotyped entry inhibition, cell reporter; control for the full effect not named in the record; about a third of the inactives were read at about 46 µM. Potency, µM (titrated, usually from 37.8 µM), inactives show at the top dose activity change, negative = inhibition, most hits filed as inhibitors. actives 1.8% (n = 300,000); active = well fitted inhibition curve with a large enough effect; inconclusive = small, poorly fitted or top-dose-only effect, or effect the other way; inactive = flat fitted curve, though single readings scatter; tested in HEK293 cells; about a fifth of its hits are not listed in these tables; also: % is scaled to controls: 0 for no effect and ±100 for the full control effect; luciferase read-out
NS1 inh – blocks influenza NS1 protein function | actives 0.4% (n = 270,000) | Potency, µM (highest dose often 46.1 µM), for inactives: at the highest dose activity, positive = more growth | S. cerevisiae slowed by influenza A NS1, growth recovery by OD600 | AID 2326; active means well fitted rising curve with a large enough effect; inconclusive means small, poorly fitted or top-dose-only effect; inactive means no such curve, though single readings can be large or run the other way; also: nearly all actives have a fitted effect of over 50% in size
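OD600 was taken as the measure of yeast growth restored by compound in an NS1-expressing S. cerevisiae strain. Cells had been washed out of glucose medium and diluted 1:100 into galactose -URA medium, pH 6.0.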
Cruzain noTriton – inhibitors of Trypanosoma cruzi cruzain without detergent | P25779 | purified cruzain, Z-FR-AMC fluorescence, no detergent | Potency, µM, for the others: max response, negative = inhibition, usual class: inhibitors | actives 2.3% (n = 200,000);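 also: plate controls were enzyme without inhibitor for no effect and buffer without enzyme for full effect; nearly all actives have a fitted effect of over 40% in size; top concentration of the series not given in the record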
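Detergent-free condition (0.00005% Triton X-100) in acetate buffer pH 5.5 with DTT. 1.5 nM enzyme and compound were pre-mixed 15 min, then 2 uM Z-FR-AMC substrate added; reaction progress from fluorescence change between first and third reads (60 s).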
An asterisk follows results filed as active; ? = inconclusive; . = no result given; & = joins results of further samples; [ ] = another dose, or the depositor's remark. Unless noted, calls follow the shape of the dose curve; as a rule, active = well fitted curve in the direction sought with a large enough effect; inconclusive = small, poorly fitted or top-dose-only effect, or another doubt; inactive = no such curve, though single readings can be large; an effect the other way counts as inactive or inconclusive. Potency is read from the fitted curve at half-maximal effect.

SMILES	Cruzain Triton	StopGo reporter	RE007 growth inh	LASV entry inh	SARS PLpro yeast	MARV entry inh	NS1 inh	Cruzain noTriton
CCn1c2ccccc2n2c(=O)c(=O)n(CC(=O)Nc3ccc(C(C)C)cc3)nc12	10%	-26%	6%	1%	13%	?	23%	8%
COc1nnc(-c2ccc(N3CCCCC3)c(NC(=O)c3ccc(C)cc3)c2)c2ccccc12	-2.5%	-22%	.	15%[46.1 µM]	.	2%[46.1 µM]	.	3%
Cc1ccc(C)c(N2N=C(C(=O)OCC(=O)N(C)c3ccccc3)CCC2=O)c1	.	-24%	-13%	4%	-5%	-15%	.	.
CCn1c(COc2ccccc2)nnc1SCc1ccc(C#N)cc1	5.9%	-28%	-13%	7%	-2%	?	-50%	8%
COc1ccc(N(CC(=O)N2CCN(c3ccccc3F)CC2)S(=O)(=O)c2c(C)n[nH]c2C)cc1	-5.4%	?	3%	2%&-25%[46.1 µM]	1%	?	.	?
CCC(C)[C@H](NC(=O)c1cc2cc(Cl)ccc2n1C)C(=O)N1CCC[C@H]1C(=O)O (some centres undefined)	.	-15%	7%	.	2%	.	29%	.
COc1ccc(OCc2cnc(Cl)s2)cc1	6.4%	43%[activator]	10%	10%	1%	30%	6%	-1%
CC(C)(C)OC(=O)N1CC(O)CC1C(=O)OCC(=O)c1ccc(Cl)cc1 (centres undefined)	2.0%	-4%	5%	5%	-6%	16%	-3%	23%
CCOC(=O)[C@@H]1[C@H]2COc3cc(OC)ccc3[C@@H]2N2C(=O)N(c3cccc(C)c3)C(=O)[C@@]12C	.	-5%	-5%	.	6%	.	-2%	.
CC1=C(C(=O)Nc2ccccc2)C(c2ccccn2)n2nc(SCc3ccccc3Cl)nc2N1 (centres undefined)	0.1%	-14%	.	-15%[46.1 µM]	.	-2%[46.1 µM]	.	-2%
CCc1nnc(NS(=O)(=O)c2ccc(NS(=O)(=O)c3ccccc3[N+](=O)[O-])cc2)s1	.	1%	0%	.	1%	.	10%	.
O=C(N/N=C/c1ccc([N+](=O)[O-])o1)c1cc(-c2ccncc2)nc2ccccc12	5.5%	-8%	-21%	?	-5%	?	10%	?
Cc1cccc(OCC(=O)NCC(=O)N/N=C/c2cc(Br)cc(Br)c2O)c1	.	-2%	-11%	-13%	19%	?	-2%	.
CSc1ccc(/C=N/n2nnnc2N)cc1	-9.6%	23%	-4%	30%	-1%	?	1%	-27%
Cc1csc(NC(=O)Cc2ccc(F)cc2)n1	.	54%[activator]	7%	?	2%	-5%	-3%	.
COCCNC(=S)N/N=C/c1ccc(OCc2ccc(C(=O)OC)cc2)c(OC)c1	-2.8%	-21%	-16%	-10%	1%	6%	-3%	14%
CN(Cc1ccccc1)C(=S)NC(=O)C1CCCCC1	0.3%	46%[activator]	1%	.	-40%	.	2%	1%
Cn1c(=O)c(C(=O)COC(=O)c2cc(C(F)(F)F)nc3c(C(F)(F)F)cccc23)c(N)n(CC2CC2)c1=O	2.3%&-2.3%	.	.	9%	-7%	-23%&-23%	-6%	2%&-25%
CC(C)Oc1ccc(CNC(=O)C2CCCN(S(=O)(=O)N3CCOCC3)C2)cc1 (centres undefined)	.	0%	-2%	0%[46.1 µM]	4%	16%[46.1 µM]	-12%	.
COC(=O)c1cccc(N(CC(=O)NC2CCCC2)C(=O)CNC(=O)c2cccs2)c1	.	4%	16%	11%	1%	-18%[46.1 µM]	1%	.
CCCOC(=O)c1ccc(Nc2c(C(=O)OCC)cnc3c(C)cc(Cl)cc23)cc1	2.7%	20%	.	?	.	.	.	4%
Cc1ccc(-c2nn3c(C)nnc3c3ccccc23)cc1S(=O)(=O)NCC(C)O (centres undefined)	1.3%	90%[activator]	.	-15%[46.1 µM]	.	.	.	-4%
CCN=C1S/C(=C\c2cc(Br)c(O)c(OC)c2)C(=O)N1CC	.	-14%	-9%	.	-3%	.	1%	.
Fc1ccc(C(c2nnnn2Cc2ccccc2)N2CCSCC2)cc1 (centres undefined)	-1.0%	.	1%	?	-18%	-28%	-32%	-1%
CC1=C(C(=O)OC2CCCCC2)C(c2ccc(F)cc2)NC(=O)N1 (centres undefined)	.	0%	0%	-14%[46.1 µM]	-4%	?	1%	.
O=C(NC1CC2CCC(C1)N2Cc1ccccc1)c1cccc(F)c1 (centres undefined)	.	-3%	2%	.	-5%	.	-7%	.
O=C(CSc1ccc2nnc(-c3cccnc3)n2n1)NCc1ccco1	-2.0%	-25%	-4%	.	1%	.	-92%	2%
CC(=O)N1N=C(c2ccc(C(C)(C)C)cc2)OC1(C)C	-6.6%	?	-3%	-12%	19%	?	-5%	6%
Brc1ccc(CSc2nnc(-c3cccnc3)o2)cc1	.	-12%	-14%	11%[46.1 µM]	-1%	8%[46.1 µM]	-30%	.
Cn1c(O)c(C=NCCOc2ccc(Cl)cc2)c(=O)n(C)c1=O	3.4%	-12%	14%	1%	2%	15%	-12%	-6%
CCc1noc(C)c1C(=O)N1CCCC(C(=O)c2cc(F)ccc2F)C1 (centres undefined)	.	-6%	22%	-16%	-1%	?	1%	.
O=C(c1ccccc1)n1ccn(-c2ccccc2)c1=S	-13%	-2%	-3%	16%	5%	2%	-1%	-14%
CC(C)(C)NC(=O)CSc1nc2[nH]ncc2c(=O)[nH]1	.	15%	4%	?	0%	?	.	.
COc1cccc(-c2cc(C(=O)Nc3nc4ccccc4s3)c3ccccc3n2)c1	-0.7%	.	-17%	33%	-1%	?	26%	13µM*
COc1cccc(CNC(=O)c2nnn(CC(=O)Nc3cc(C)ccc3C)c2N)c1	.	-19%	5%	-28%[46.1 µM]	?	-17%[46.1 µM]	1%	.
COCCNC(=O)c1cccc(C)c1[N+](=O)[O-]	2.4%	-15%	.	-17%	14%	17%	2%	2%
COc1ccc(C(=O)N/N=C(\CCC(=O)O)c2ccc(C(C)(C)C)cc2)cc1OC	.	2%	2%	-2%	-6%	-3%[46.1 µM]	.	.
O=C(NCCn1cccn1)C1CCC(=O)N(CCc2cccc(F)c2)C1 (centres undefined)	.	-8%	-3%	-8%[46.1 µM]	0%	21%[46.1 µM]	4%	.
COc1ccccc1-n1c(C)nnc1SCC(N)=O	8.6%	20%	14%	-5%	2%	-5%	-1%	-2%
COc1ccc(CNS(=O)(=O)NCc2ccc(OC)c(OC)c2)cc1OC	.	-18%	130%	?	1%	3%[46.1 µM]	.	.
CC(C)C(OC(=O)Cn1nnc2ccccc21)C(=O)NC1CCCC1 (centres undefined)	.	0%	2%	5%[46.1 µM]	1%	11%[46.1 µM]	-1%	.
O=c1[nH]c(SCc2nc3ccccc3c(=O)n2-c2ccccc2)nc2ccccc12	-1.9%	?	18%	11%	25%	4%	9%	-13%
Cc1cccc(NC(=S)N(Cc2cccs2)Cc2cc3cc(C)ccc3[nH]c2=O)c1	-6.3%	0%	5%	-12%	-28%	?	-4%	?
O=C(c1ccccc1)c1ccc(OCCCN2CCCCC2)cc1	3.9%	-17%	5%	-4%	6%	-15%[46.1 µM]	-1%	7%
COCCNC(=O)C(c1ccc(C)o1)N(C(=O)c1snc(C(N)=O)c1N)c1ccc(C)c(C)c1 (centres undefined)	-8.9%	6%	2%	2%	-3%	-2%	-20%	?
O=C(NCC1CCCO1)C(c1cccs1)N(C(=O)c1ccc(CN2CCOCC2)o1)c1ccc(Cl)cc1 (centres undefined)	0.9%	-11%	11%	24%	-8%	?	-7%	2%
COc1ccc(NC(=O)c2cccc(Oc3ccccc3)c2)cn1	.	11%	-8%	?	-5%	7.9µM*	-74%	.
O=c1[nH]cnc2nc(-c3ccccc3)c(-c3ccccc3)nc12	-18%	-5%	15%	11%	5%	5%	-1%	-2%
CCCN(CC(=O)Nc1cc(Cl)ccc1Cl)C(=O)CN1C(=O)C2CCCCC2C1=O (centres undefined)	.	-8%	-6%	-1%	6%	-5%	-1%	.
Cc1ccc(N=Nc2ccc(O)c3ncccc23)cc1	-4.9%	-19%	1%	?	4µM*	?	-14%	?
O=C(Nc1ccc(S(=O)(=O)N2CCCCCC2)cc1)c1ccc(Br)o1	0.1%	46%[activator]	2%	9.2µM*	-1%	?	-24%	0%
COc1ccc(C(=O)n2cnc3ccccc32)cc1Br	.	17%	0%	-20%[46.1 µM]	.	?	.	.
Nc1nc(C2CCOCC2)cs1	.	-5%	12%	.	2%	.	5%	.
CCN(CC)CCNC(=O)c1c(C)oc2ncnc(N3CCOCC3)c12	-0.8%	-13%	.	17%[46.1 µM]	.	.	.	0%
O=C(CCNS(=O)(=O)c1cccc2nsnc12)Nc1ccc(F)cc1	-1.9%	10%	.	19%[46.1 µM]	.	?	.	-8%
COc1ccc2c(Sc3ccc(Cl)cc3)c(C(=O)N3CCC(C)CC3)[nH]c2c1	-10.0%	91%[activator]	.	-28%[46.1 µM]	.	22%[46.1 µM]	.	1%
O=C(NN=C1CCCC1)c1[nH]c2ccc(Cl)cc2c1-c1ccccc1	.	-10%	7%	?	1%	?	22%	.
CC(C)(C)NCC(=O)N/N=C/c1ccc(OCc2ccccc2)cc1	.	24%	7%	24%	0%	-22%[46.1 µM]	-46%	.
Cc1ccc(-n2c(=O)c3cccnc3n2CC(=O)Nc2cccc(C)c2C)cc1	-0.7%	-13%	.	7%[46.1 µM]	.	.	.	-7%
O=C(NC1CCCCC1)N(Cc1nc2ccccc2c(=O)[nH]1)C1CCCCC1	-1.4%	27%	2%	-2%	-2%	11%	-50%	-7%
CC(C)c1nc(CNC(=O)CC2C(=O)NCCN2Cc2cccc(F)c2F)cs1 (centres undefined)	.	-16%	-7%	-16%	5%	2%	20%	.
CCCCCOC(=O)CSc1nnc(-c2cc(OC)c(OC)c(OC)c2)o1	1.4%	7%	-12%	-13%	-5%	-3%&-3%	?	21%
N/C(=N\OC(=O)c1cccc2ccccc12)c1cccc([N+](=O)[O-])c1	-2.3%	27%	-7%	-25%	1%	-21%	-6%	-13%

Screens (PubChem BioAssay)
